High-throughput results from PubChem.
YopH PTP inh: YopH (Yersinia) phosphatase inhibition | inhibition, %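 (about 10 µM by stock and volumes)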 | fluorescence Ex485/Em525 | hit rate 0.16% among 140,000;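 active = inhibition of 50% or more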;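 note: controls were vehicle for no effect and minimum signal wells for full effect; inactives centre near -20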
RecA splice inh: Mtb RecA intein splicing inhibition. P9WHJ3. cell-free RecA intein splicing, fluorescence. inhibition, %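 (about 9 µM by stock and volumes)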. hit rate 0.75% among 290,000; in the data active = inhibition above about 30%; inconclusive = no clear call, values can overlap the other calls;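 note: 0% = vehicle wells and 100% = reference inhibitor control wells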
Target sequence (P9WHJ3 whole entry, looked up, canonical isoform): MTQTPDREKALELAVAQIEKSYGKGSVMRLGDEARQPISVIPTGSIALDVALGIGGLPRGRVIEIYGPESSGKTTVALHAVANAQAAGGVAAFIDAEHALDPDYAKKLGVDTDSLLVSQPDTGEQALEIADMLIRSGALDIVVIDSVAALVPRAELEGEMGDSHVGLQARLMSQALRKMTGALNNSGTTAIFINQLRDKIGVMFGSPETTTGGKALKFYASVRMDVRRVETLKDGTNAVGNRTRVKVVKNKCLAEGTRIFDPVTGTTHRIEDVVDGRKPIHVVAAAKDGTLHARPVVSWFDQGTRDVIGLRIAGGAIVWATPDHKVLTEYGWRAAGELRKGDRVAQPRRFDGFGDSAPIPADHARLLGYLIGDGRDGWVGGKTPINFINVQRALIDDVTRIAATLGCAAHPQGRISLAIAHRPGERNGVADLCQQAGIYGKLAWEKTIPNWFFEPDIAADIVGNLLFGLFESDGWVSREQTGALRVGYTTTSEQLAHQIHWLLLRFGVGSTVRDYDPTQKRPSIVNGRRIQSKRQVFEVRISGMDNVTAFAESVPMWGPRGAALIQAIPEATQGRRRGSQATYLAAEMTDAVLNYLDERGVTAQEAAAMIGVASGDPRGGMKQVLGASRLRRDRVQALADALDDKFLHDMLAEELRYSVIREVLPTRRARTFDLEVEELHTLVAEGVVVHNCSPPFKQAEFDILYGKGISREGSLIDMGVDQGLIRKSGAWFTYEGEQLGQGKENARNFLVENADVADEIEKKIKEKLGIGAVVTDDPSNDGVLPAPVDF
Mtb H37Rv: M. tuberculosis H37Rv growth inhibitors, H37Rv strain (AID 1626) | M. tuberculosis H37Rv growth inhibition; higher % means a stronger effect | inhibition, % at 10 µM, or IC50 in µM where a hit was titrated | hit rate 0.95% among 220,000;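 active = confirmed in a dose series; inconclusive = inhibition above 80% but not taken into the dose series; inactive = below 80% or under 30% at every dose of the series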;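 note: bacteria incubated seven days before Alamar blue readout; 0% = bacteria only wells and 100% = bacteria with antibiotic wells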
Mtb bLac sens: beta-lactam sensitization of Mtb H37Rv | M. tuberculosis H37Rv growth with meropenem, percent inhibition; hits of this screen are not shown here | inhibition, % at 25 µM | hit rate 0.27% among 330,000 | AID 434955;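 active = about 74% or more and at least 40 points above the plate without the antibiotic, then above 30% in a dose series; inconclusive = first-round hits that could not be retested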;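 note: growth measured after seven days incubation then overnight dye step; 0% = bacteria only wells and 100% = bacteria with antibiotic; twin plates without the antibiotic show which effects depend on it; some results filed as inactive read as strong as hits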
Arbovirus inh: antivirals against arbovirus infection; arbovirus infection cell-based antiviral screen; inhibition, % at 10 µM; hit rate 0.37% among 200,000; AID 1251;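 active = inhibition from about 30%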;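 note: bluetongue infection of BSR cells; cell survival read as ATP light after 72 h; 0% = infected wells without compound and 100% = uninfected wells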
Arbovirus inh repeat: further read-out of Arbovirus inh, marked with its call; inhibition, %; measured here: 10K subset replicate screen; many hits read low in the repeat;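 first of two repeat runs on a subset; 0% = infected and 100% = uninfected wells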
* hit, by the source's call. This is a subset (hit frequency here may not be typical).

How did Cc1c(C(=O)Nn2cnnc2)oc2ccccc12 do in these assays?
YopH PTP inh: -53; RecA splice inh: -2.2; Mtb H37Rv: -2%; Mtb bLac sens: -3; Arbovirus inh: 2

What do the screens show for `CC(=O)Nc1ccc(S(=O)(=O)Nc2c(C)nn(-c3ccccc3)c2C)cc1`?
YopH PTP inh: -12; RecA splice inh: -3.8; Mtb H37Rv: -19%; Mtb bLac sens: 5; Arbovirus inh: 6

What do the screens show for `O=[N+]([O-])c1ccc(S(=O)(=O)NCCc2ccncc2)cc1`?
Mtb H37Rv: 7%; Mtb bLac sens: 1; Arbovirus inh: 2

What do the screens show for `Cc1ccc(-c2nn(CC(=O)NN3CCOCC3)c(=O)c3ccccc23)cc1`?
RecA splice inh: -2.2; Mtb H37Rv: -8%; Mtb bLac sens: -7

How did Cc1ccc2c(c1)cc1c(=O)n(CC(=O)NCCCc3ccccc3)nc(C)n12 do in these assays?
RecA splice inh: 3.7; Mtb bLac sens: 4

How did NC(=O)C1CCCN(CC(=O)N2CCN(c3ccccc3)CC2)C1 (stereo unspecified) do in these assays?
RecA splice inh: -1.8; Mtb bLac sens: -5

Results for CCOC(=O)N1CCN(CC(O)COc2ccc(OC)cc2C(C)(C)C)CC1 (stereo unspecified) ?
YopH PTP inh: -14; RecA splice inh: 5.0; Mtb H37Rv: 6%; Mtb bLac sens: 2; Arbovirus inh: 6

How did COc1cc(C2NC(=O)NC(c3ccccc3)=C2C(C)=O)cc([N+](=O)[O-])c1O (stereo unspecified) do in these assays?
RecA splice inh: -2.3; Mtb H37Rv: -4%; Mtb bLac sens: 9; Arbovirus inh: 3

How did CC(Sc1nnc(-c2ccc(OC(F)F)cc2)n1N)C(=O)NCC1CCCO1 (stereo unspecified) do in these assays?
RecA splice inh: 0.9; Mtb bLac sens: 59

How did CCCC(C)(COC(N)=O)COC(=O)NC(C)C (stereo unspecified) do in these assays?
YopH PTP inh: -35; RecA splice inh: -1.4; Mtb H37Rv: 2%; Mtb bLac sens: 2; Arbovirus inh: 3

How did COc1ccc2oc(=O)c(NC(=O)C3CCCCC3)cc2c1 do in these assays?
YopH PTP inh: -46; RecA splice inh: 1.7; Mtb H37Rv: -1%; Mtb bLac sens: -7; Arbovirus inh: -3

What do the screens show for `COc1ccc(C2C(C(=O)O)CCC(=O)N2c2ccc(OC)cc2)cc1` (stereo unspecified)?
YopH PTP inh: -18; RecA splice inh: 0.0; Mtb H37Rv: 2%; Mtb bLac sens: -2; Arbovirus inh: 4

Results for Cc1ccc(S(=O)(=O)N2CCOC2CNC(=O)C(=O)NCc2ccncc2)cc1 (stereo unspecified) ?
RecA splice inh: 0.4; Mtb H37Rv: -5%; Mtb bLac sens: -10

What do the screens show for `COC(=O)c1nn(-c2ccccc2)c(Cl)c1/C=N/OCc1ccc(Cl)cc1Cl`?
YopH PTP inh: -7; RecA splice inh: -1.5; Mtb H37Rv: 3%; Mtb bLac sens: 17; Arbovirus inh: -14

What do the screens show for `Cc1ccc2c(c1)c(N=O)c(O)n2Cc1ccc(Cl)cc1`?
RecA splice inh: 14; Mtb H37Rv: 4%; Mtb bLac sens: 2; Arbovirus inh: -21

Results for CC1Cc2ccccc2N1C(=O)Cn1c(=O)cc(O)c2ccccc21 (stereo unspecified) ?
YopH PTP inh: -8; RecA splice inh: -8.7; Mtb H37Rv: -9%; Mtb bLac sens: -9; Arbovirus inh: -11

How did C=CCNC(=O)CSc1nc2sc(C)c(C)c2c(=O)[nH]1 do in these assays?
YopH PTP inh: -37; RecA splice inh: -0.3; Mtb H37Rv: -6%; Mtb bLac sens: 3; Arbovirus inh: 11; Arbovirus inh repeat: 4

How did COc1ccccc1OCCOCCn1cnc2ccccc2c1=O do in these assays?
YopH PTP inh: -30; RecA splice inh: 4.8; Mtb H37Rv: -2%; Mtb bLac sens: -2; Arbovirus inh: -4

What do the screens show for `CC(=O)c1ccc(NC(=O)N2CCc3ccccc3C2)cc1`?
RecA splice inh: 0.7; Mtb H37Rv: 3%; Mtb bLac sens: 4; Arbovirus inh: -8

What do the screens show for `c1ccc2c(c1)oc1c(NCCN3CCOCC3)ncnc12`?
YopH PTP inh: -13; RecA splice inh: 0.6; Mtb H37Rv: 4%; Mtb bLac sens: 5; Arbovirus inh: -1

What do the screens show for `COc1ccc(N2CC(C(=O)Nc3nnc(C4CCCCC4)s3)CC2=O)cc1` (stereo unspecified)?
RecA splice inh: -0.4; Mtb bLac sens: -3

How did COCCCNC(=O)C1CCN(C(=O)c2oc3cc4sc(N(C)C)nc4cc3c2C)CC1 do in these assays?
RecA splice inh: 0.7; Mtb bLac sens: -3

Results for Cc1ccc2cc(CN(CCCN(C)C)C(=O)NCc3ccccc3)c(=O)[nH]c2c1C ?
YopH PTP inh: -33; RecA splice inh: 3.0; Mtb H37Rv: -3%; Mtb bLac sens: -6; Arbovirus inh: -9

Results for CC(C)c1ccc(N(CC(=O)NN=C2CCN(C)CC2)S(=O)(=O)c2ccccc2)cc1 ?
RecA splice inh: 0.0; Mtb H37Rv: 2%; Mtb bLac sens: -6; Arbovirus inh: -6

What do the screens show for `COc1cc(OC)cc(C(=O)Nc2ccc(Br)cc2C(=O)c2ccccc2)c1`?
YopH PTP inh: -29; RecA splice inh: -0.4; Mtb H37Rv: -2%; Mtb bLac sens: 7; Arbovirus inh: 1

What do the screens show for `O=[N+]([O-])c1ccc(N2CCNCC2)cc1NC1CC1`?
YopH PTP inh: 6; RecA splice inh: -1.6; Mtb bLac sens: 4; Arbovirus inh: -3

What do the screens show for `NS(=O)(=O)c1ccc(CCNC(=O)C2CCN(S(=O)(=O)c3ccccc3)CC2)cc1`?
RecA splice inh: -0.3; Mtb H37Rv: -10%; Mtb bLac sens: -7; Arbovirus inh: 6

How did Cc1ccccc1C(=O)NC(NCc1ccco1)C(Cl)(Cl)Cl (stereo unspecified) do in these assays?
YopH PTP inh: -43; RecA splice inh: -1.1; Mtb H37Rv: -2%; Mtb bLac sens: 1; Arbovirus inh: 1

What do the screens show for `O=C(/C=C/c1ccc(Cl)cc1)NC(=S)Nc1ccc(N2CCOCC2)c(Cl)c1`?
YopH PTP inh: -20; RecA splice inh: -0.1; Mtb H37Rv: inconclusive; Mtb bLac sens: 62; Arbovirus inh: -28

How did O=c1cc(CN2CCN(S(=O)(=O)c3ccc4c(c3)OCCO4)CC2)c2ccc(O)cc2o1 do in these assays?
YopH PTP inh: -8; RecA splice inh: -129; Mtb H37Rv: -2%; Mtb bLac sens: -2; Arbovirus inh: 18

Results for Cc1[nH]c(C)c(S(=O)(=O)N2CCN(c3ccccc3F)CC2)c1C(=O)N1CCCCC1 ?
RecA splice inh: 0.1; Mtb bLac sens: 0

Results for Cc1ccc(S(=O)(=O)c2nc(-c3cccs3)oc2NCCCN(C)C)cc1 ?
YopH PTP inh: -43; RecA splice inh: -0.3; Mtb H37Rv: -7%; Mtb bLac sens: -1; Arbovirus inh: 3

What do the screens show for `O=C(COC(=O)C1CCN(S(=O)(=O)c2cccc3cccnc23)CC1)c1ccc(F)cc1`?
YopH PTP inh: -40; RecA splice inh: 2.3; Mtb H37Rv: 3%; Mtb bLac sens: 2; Arbovirus inh: 1

What do the screens show for `Cc1ccc2c(c1)CCCN2C(=O)c1c(C)noc1C`?
YopH PTP inh: -16; RecA splice inh: 2.2; Mtb H37Rv: -4%; Mtb bLac sens: -3; Arbovirus inh: 3

What do the screens show for `O=C(NCCS(=O)(=O)N1CCN(c2ccccc2F)CC1)c1ccco1`?
RecA splice inh: -3.0; Mtb bLac sens: -4

What do the screens show for `CC1(C)CC(Cc2nc(=S)[nH][nH]2)C(=O)O1` (stereo unspecified)?
RecA splice inh: -1.8; Mtb H37Rv: -1%; Mtb bLac sens: 1; Arbovirus inh: 1

Fetched by compound from above, 5 records:
Results for Cc1ccc(S(=O)(=O)c2nc(-c3cccs3)oc2NCCCN(C)C)cc1 ?
YopH PTP inh: -43; RecA splice inh: -0.3; Mtb H37Rv: -7%; Mtb bLac sens: -1; Arbovirus inh: 3

How did Cc1ccccc1C(=O)NC(NCc1ccco1)C(Cl)(Cl)Cl (stereo unspecified) do in these assays?
YopH PTP inh: -43; RecA splice inh: -1.1; Mtb H37Rv: -2%; Mtb bLac sens: 1; Arbovirus inh: 1

What do the screens show for `CC1(C)CC(Cc2nc(=S)[nH][nH]2)C(=O)O1` (stereo unspecified)?
RecA splice inh: -1.8; Mtb H37Rv: -1%; Mtb bLac sens: 1; Arbovirus inh: 1

What do the screens show for `COc1cc(OC)cc(C(=O)Nc2ccc(Br)cc2C(=O)c2ccccc2)c1`?
YopH PTP inh: -29; RecA splice inh: -0.4; Mtb H37Rv: -2%; Mtb bLac sens: 7; Arbovirus inh: 1

What do the screens show for `NS(=O)(=O)c1ccc(CCNC(=O)C2CCN(S(=O)(=O)c3ccccc3)CC2)cc1`?
RecA splice inh: -0.3; Mtb H37Rv: -10%; Mtb bLac sens: -7; Arbovirus inh: 6

(more compounds)
How did CC(C)Oc1cc(-n2c(=S)[nH]c3ccccc3c2=O)c(Cl)cc1Cl do in these assays?
YopH PTP inh: -46; RecA splice inh: 6.6; Mtb H37Rv: 7%; Mtb bLac sens: 87; Arbovirus inh: -16

Results for O=C(O)C1C2C=CC(C2)C1C(=O)Nc1ccc(C(=O)N2CCCCC2)cc1 (stereo unspecified) ?
YopH PTP inh: -16; Mtb bLac sens: 5; Arbovirus inh: 10

What do the screens show for `N#Cc1c(/N=C/c2ccco2)oc(-c2ccccc2)c1-c1ccccc1`?
YopH PTP inh: -48; RecA splice inh: 2.0; Mtb bLac sens: 6; Arbovirus inh: -13

What do the screens show for `COCCNC(=O)C(c1ccc(C)cc1)N(C(=O)CCC(=O)Nc1ccccn1)c1ccc(C)cc1` (stereo unspecified)?
RecA splice inh: -0.1; Mtb bLac sens: -4

Results for Cc1ccc2nc(-c3ccc(SCC(=O)Nc4nnc(C)s4)nc3)[nH]c2c1 ?
YopH PTP inh: 7; RecA splice inh: -3.0; Mtb H37Rv: 46%; Mtb bLac sens: 1; Arbovirus inh: -12

What do the screens show for `Cc1ccoc1C(=O)NCCNC(=O)c1occc1C`?
RecA splice inh: 1.1; Mtb bLac sens: -7

How did COc1ccccc1C(OC(=O)c1cccs1)C(=O)NCC1CCCO1 (stereo unspecified) do in these assays?
YopH PTP inh: -36; RecA splice inh: 1.4; Mtb H37Rv: -6%; Mtb bLac sens: -1; Arbovirus inh: 3

How did CCSc1nnc(NC(=O)Cn2cnc3c2c(=O)n(C)c(=O)n3C)s1 do in these assays?
RecA splice inh: -0.7; Mtb H37Rv: 3%; Mtb bLac sens: -15; Arbovirus inh: 3

Results for O=C(CSc1ccccc1)NCc1ccccc1 ?
RecA splice inh: -1.4; Mtb bLac sens: 3

What do the screens show for `CN1CC(=O)N(CCOc2ccccc2)C1=O`?
YopH PTP inh: 8; RecA splice inh: -0.5; Mtb bLac sens: 3; Arbovirus inh: -1

What do the screens show for `Cc1ccc(CSc2nc3sc(C)c(C)c3c(=O)n2Cc2ccco2)cc1`?
YopH PTP inh: -42; RecA splice inh: -1.1; Mtb H37Rv: -5%; Mtb bLac sens: 5; Arbovirus inh: 14

What do the screens show for `O=C(Nc1ccc2c(c1)OCCO2)NC1CCCCC1`?
YopH PTP inh: 6; RecA splice inh: 0.0; Mtb H37Rv: 1%; Mtb bLac sens: 42; Arbovirus inh: -9; Arbovirus inh repeat: -2

How did Cc1c(C)c2ccc(OC(C)C(=O)NC3CC(C)(C)NC(C)(C)C3)cc2oc1=O (stereo unspecified) do in these assays?
RecA splice inh: -0.9; Mtb bLac sens: 4

What do the screens show for `CCOCCCNC(=O)c1cn(CC(C)C)c(=O)c2c1c1ccccc1n2C`?
RecA splice inh: -1.4; Mtb bLac sens: -5

What do the screens show for `CC(=O)Nc1ccc(C)c(NC(=S)Nc2ccc(F)cc2)c1`?
RecA splice inh: -1.4; Mtb H37Rv: -5%; Mtb bLac sens: 3

What do the screens show for `CCCCC(=O)NC(=S)Nc1ccccc1C(=O)Nc1ccccc1`?
YopH PTP inh: -32; RecA splice inh: -0.2; Mtb H37Rv: -1%; Mtb bLac sens: -13; Arbovirus inh: 3

What do the screens show for `COc1ccccc1NC(=O)/C(C#N)=C/c1cc([N+](=O)[O-])ccc1N1CCCC1`?
YopH PTP inh: -13; RecA splice inh: -1.0; Mtb H37Rv: 6%; Mtb bLac sens: 2; Arbovirus inh: 11

How did CC(=O)Nc1cccc(N2C(=O)CC(Cc3ccccc3)C2=O)c1 (stereo unspecified) do in these assays?
YopH PTP inh: -25; RecA splice inh: 0.9; Mtb H37Rv: -4%; Mtb bLac sens: -7; Arbovirus inh: -2; Arbovirus inh repeat: 1

How did COc1ccc(C(=O)N(CCCO)C(C)C(=O)NC2CCCCC2)cc1OC (stereo unspecified) do in these assays?
YopH PTP inh: -36; RecA splice inh: -1.2; Mtb H37Rv: -8%; Mtb bLac sens: -5; Arbovirus inh: 3
